TRPV1 potentiator: HTS Assay for Compounds that Act as Potentiators of the Vanilloid Receptor 1; AID 540277, 2011; potentiation, % at 8.33 µM; 0.02% of 320,000 active; TRPV1-expressing cells, Fluo-8 calcium influx, capsaicin EC20 potentiation; host cell line not named in the record; control for the full effect not named in the record; active means potentiation above 80%; inconclusive means 30% to 80%; inactive means below 30%; also: 0% is about no effect
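Cells expressing TRPV1 were dye-loaded with Fluo-8 and read kinetically: 10 s baseline, 3 min after compound (agonist portion), then 2 min after EC20 capsaicin (allosteric enhancer portion). Calcium-bound dye fluorescence at 480/520 nm.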
Sfp PPTase inh: qHTS Assay for Inhibitors of Bacillus subtilis Sfp phosphopantetheinyl transferase (PPTase); 4'-phosphopantetheinyl transferase ffp (Bacillus subtilis), Q9F4F7; 3.5% of 310,000 active; Biochemical Sfp PPTase activity, qHTS; Potency, µM, without a hit: max response, negative = inhibition, hits mostly inhibitors; active = well fitted inhibition curve with a large enough effect; inconclusive = small, poorly fitted or top-dose-only effect, or another doubt; inactive = no such curve, though single readings can be large or run the other way;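 also: the enzyme is Sfp with the accession as filed and its product quenches rhodamine fluorescence; potency is read from the fitted curve at half-maximal effect; 0% = enzyme reaction without inhibitor and -100% = no enzyme wells; top concentration of the series not given in the record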
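Compounds were incubated with enzyme (final 15 nM) for 15 min at room temperature before substrate addition started the reaction. Fluorescence at 525 nm excitation, 598 nm emission was recorded immediately and after 30 minutes.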
Menin-MLL FL inh: qHTS Assay for Inhibitors Targeting the Menin-MLL Interaction in MLL Related Leukemias: Competition With Fluorescein Labeled MLL-derived Peptide; 290,000 tested, under 10 active; Fluorescence polarization, fluorescein-MLL peptide displacement from menin; FP activity change, % at 61.4 µM; inconclusive = falling polarisation curve, or a change in total fluorescence; inactive = total fluorescence flat and polarisation flat or rising; no compound was filed as active; the % refers to the polarisation; negative = inhibition;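 also: % of control where 0% means no effect; inhibitors lower the polarisation; unlabelled MLL peptide was the positive control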
gsp antagonist: qHTS for Antagonists of gsp, the Etiologic Mutation Responsible for Fibrous Dysplasia/McCune-Albright Syndrome: qHTS | gsp-mutant cells, cAMP HTRF, 30 min; control for the full effect not named in the record | Potency, µM (highest dose often 76.9 µM), without a hit: at the highest dose activity change, negative = inhibition, most hits filed as inhibitors | 0.4% of 340,000 active | AID 624288, 2012; active = falling curve of any shape with a large fitted effect; inconclusive = falling curve, mostly with a smaller effect; inactive = flat or rising curve; cell line not stated here;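 also: intracellular cAMP measured with PDE inhibitor Ro 20-1724 present during compound exposure; potency is read from the fitted curve at half-maximal effect; % is scaled to controls: 0 for no effect and ±100 for the full control effect; nearly all actives have a fitted effect of over 65% in size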
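Measurement of cellular cAMP by homogeneous time-resolved fluorescence following a 30 min compound exposure at 37C. The PDE inhibitor […] was present throughout; the assay buffer was DPBS with 0.05% BSA and 0.005% Tween 20.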
ClpP mod: qHTS Assay for Activators of ClpP | purified B. subtilis ClpP, FRET peptide cleavage, 20 min | 1.9% of 340,000 active | Potency, µM (series often up to 57.5 µM), without a hit: at the highest dose activity change, negative = active | ATP-dependent Clp protease proteolytic subunit (Bacillus subtilis (strain 168)), P80244; active = well fitted falling curve with a large enough effect; inconclusive = small, poorly fitted or top-dose-only effect; inactive = no such curve, though single readings can be large or run the other way; also: potency is read from the fitted curve at half-maximal effect; the source files actives as falling curves though it sought activators and does not explain the sign; nearly all actives have a fitted effect of over 65% in size; many hits overshoot -100%
Target sequence (P80244 whole entry, looked up): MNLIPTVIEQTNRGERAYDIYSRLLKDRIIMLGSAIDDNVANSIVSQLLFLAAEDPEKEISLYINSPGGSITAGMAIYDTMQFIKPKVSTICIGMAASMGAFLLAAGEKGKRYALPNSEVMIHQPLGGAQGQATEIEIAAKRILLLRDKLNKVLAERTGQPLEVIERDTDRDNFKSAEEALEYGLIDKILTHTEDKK
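Purified B. subtilis ClpP, 10 microg/mL final in Tris/HCl pH8 with KCl, BSA, glycerol and Tween-20, cleaved an Abz/nitrotyrosine-quenched decapeptide. Fluorescence (ex 320, em 430) was read at 0 and 20 min at room temperature. Delta was normalized to 5.8 microM ADEP and DMSO/no-enzyme controls.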
TRPML1 blocker: qHTS for Inhibitors of the Human Mucolipin Transient Receptor Potential 1 (TRPML1) | TRPML1-inducible cells, Ca2+ dye fluorescence, FDSS; active compounds read low; inhibition of EC80 agonist-evoked calcium signal | activity change, negative = inhibition, % (concentration not given with the values) | Mucolipin-1 (Homo sapiens), Q9GZU1 | 0.02% of 390,000 active; in the data active means activity change below about -50%; inconclusive means about -30% to -50%; inactive means above about -30%;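 also: stimulus is agonist 54-4 at its EC80 concentration; % is scaled to controls: 0 for no effect and ±100 for the full control effect; the text of the record puts the active cut at -80%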
Target sequence (Q9GZU1 whole entry, looked up): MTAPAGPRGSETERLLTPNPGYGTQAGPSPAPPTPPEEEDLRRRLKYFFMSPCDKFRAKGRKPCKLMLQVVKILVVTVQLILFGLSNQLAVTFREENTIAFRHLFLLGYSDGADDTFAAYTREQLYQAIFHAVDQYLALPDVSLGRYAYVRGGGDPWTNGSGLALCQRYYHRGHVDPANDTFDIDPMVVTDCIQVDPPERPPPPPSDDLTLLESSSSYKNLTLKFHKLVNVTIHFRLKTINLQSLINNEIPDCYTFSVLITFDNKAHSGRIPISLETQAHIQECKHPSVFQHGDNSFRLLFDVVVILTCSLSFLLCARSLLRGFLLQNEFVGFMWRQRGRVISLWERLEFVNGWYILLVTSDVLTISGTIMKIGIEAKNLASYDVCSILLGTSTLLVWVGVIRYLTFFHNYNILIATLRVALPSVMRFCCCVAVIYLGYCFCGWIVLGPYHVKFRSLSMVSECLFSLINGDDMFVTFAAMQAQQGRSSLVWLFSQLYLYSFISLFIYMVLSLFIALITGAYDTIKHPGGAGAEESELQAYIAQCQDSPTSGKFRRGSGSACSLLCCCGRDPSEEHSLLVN
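Calcium fluorescence in TRPML1-DL cells induced overnight with Tet: a 110 s read after compound pin addition, then a 110 s antagonist read after challenge with 54-4 at 4 uM final (EC80).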
gsp ag: qHTS for Agonist of gsp, the Etiologic Mutation Responsible for Fibrous Dysplasia/McCune-Albright Syndrome: qHTS. AID 624287, 2012. Potency, µM (series often up to 76.9 µM), for the others: top-dose activation (cAMP increase), actives largely listed as activators. 0.13% of 340,000 active. gsp mutant cells, cAMP HTRF, 30 min; control for the full effect not named in the record; active = well fitted activation curve with a large enough effect; inconclusive = small, poorly fitted or top-dose-only effect, or another doubt; inactive = no such curve, though single readings can be large or run the other way; cell line not stated here;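 also: phosphodiesterase inhibitor Ro 20-1724 added with compounds to block cAMP breakdown; potency is read from the fitted curve at half-maximal effect; nearly all actives have a fitted effect of over 60% in size; about a fifth of the inactives were tested at one dose only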
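Cells in DMEM/10% FBS with G418 were pretreated with compounds in DMSO plus […] (300 uM stock) for 30 min at 37C. cAMP was measured by HTRF (cAMP-d2 plus anti-cAMP antibody-K) after 30 min at room temperature.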
The depositor's hits bear a star; u = inconclusive; x = not tested or not shown; [ ] = dose if it differs, or a comment. The order is random. About 4.9% of those tested had a hit in this group.

Results follow in this order: ClpP mod | gsp antagonist | Menin-MLL FL inh | TRPV1 potentiator | Sfp PPTase inh | TRPML1 blocker | gsp ag
O=C(/C=C/c1ccccc1)NCCS(=O)(=O)N1CCN(c2ccccc2F)CC1
 : -3.5% | 6% | x | -11 | x | 3 | -10%
CCc1ccc(S(=O)(=O)NCc2cccnc2)cc1
 : -0.6% | 6% | -7.2 | 1 | 7% | -9 | -5%
O=C(Nc1ccc(Br)cc1Cl)NC1CC1
 : 0.7% | 13% | 2.1 | -7 | 19% | 16 | 4%
CCOC(=O)C(=O)Nc1ccc(Oc2ccccc2)cc1
 : 0.0% | -1% | 1.8 | -5 | 4% | -9 | -74%[inhibitor]
O=C(Nc1cc(Cl)ccc1N1CCOCC1)c1ccco1
 : -2.6% | -12% | x | 8 | -5% | 22 | 24%
CN(CC(=O)Nc1ccccc1Cl)C(=O)CN1C(=O)C2CC=CCC2C1=O (stereo not given)
 : -3.9% | 6% | x | x | x | 14 | 18%
COc1ccccc1Cn1c(=S)[nH]c2cc(C(=O)NCCN(C)C)ccc2c1=O
 : x | 4% | 1.8 | 13 | -7% | -2 | 12%
COc1cc2c(cc1OC)C(C(=O)Nc1ccccn1)C(c1cccnc1)N(C)C2=O (stereo not given)
 : 1.8% | 21% | 0.5 | 15 | 16% | -52* | -4%
CCOc1ccccc1-c1nn2c(Cc3ccccc3)nnc2s1
 : 25µM* | -27% | -1.8 | -7 | -14% | -7 | -2%
O=C(CCc1ccccc1)Nc1ccncc1
 : 1.0% | -7% | 5.6 | u | 7% | 2 | u
CCc1cccc(OCC(=O)Nc2ccc(S(=O)(=O)Nc3ccccn3)cc2)c1
 : -12% | -14% | 0.8 | 11 | 10% | -7 | 1%
COC(=O)c1ccc(OCCOc2ccc(C(=O)OC)cc2)cc1
 : -0.2% | -11% | -0.3 | 9 | 13% | -10 | 15%
CCS(=O)(=O)N1Cc2ccccc2CC1C(=O)N(C)Cc1ccc(OC)cc1OC (stereo not given)
 : x | 5% | 2.1 | 0 | -11% | 7 | 4%
COCc1c(C(=O)NCC(c2ccco2)N2CCCC2)oc2ccccc12 (stereo not given)
 : -4.9% | x | x | x | x | u | 24%
CCOc1ccccc1OCC(=O)Nc1cccc(S(=O)(=O)NC2=NCCCCC2)c1
 : 0.4% | -2% | x | 10 | x | -7 | -5%
CCOC(=O)C1=C(C)N(C)C(=O)NC1c1cccc2ccccc12 (stereo not given)
 : x | 0% | -1.5 | -2 | -2% | -14 | u
CC1(C)C(=O)OC(/C=C\c2cccc([N+](=O)[O-])c2)C(C)(C)C1=O (stereo not given)
 : x | 10% | 0.2 | -10 | -3% | -5 | 18%
CSc1nnc(-c2ccc(F)cc2)o1
 : 0.7% | 6% | -0.3 | 2 | 11% | -7 | 6%
CCn1nc(C)c(CN2CCN(Cc3cccc(OC)c3)C(CCO)C2)c1C (stereo not given)
 : x | 2% | 2.4 | -2 | 7% | -8 | -1%[15.4 µM]
O=C(COC(=O)c1cc2c(s1)CCCCC2)NC1CCS(=O)(=O)C1 (stereo not given)
 : -1.1% | 9% | x | 1 | x | 3 | 16%[15.4 µM]
CC1CCN(C(=O)C2CCN(CC(C)c3ccccc3)CC2)CC1 (stereo not given)
 : 0.5% | 1% | 1.2 | 19 | -7% | -6 | -11%
CC(=O)NC(O)C(=O)c1ccccc1 (stereo not given)
 : -2.3% | 1% | 0.8 | 11 | 6% | 11 | -4%
CN(CC(=O)N1CCc2ccccc21)S(=O)(=O)c1ccc(Cl)cc1
 : 0.7% | -16% | -0.4 | -11 | 14% | -3 | -27%
O=C1c2cccc3c([N+](=O)[O-])ccc(c23)C(=O)N1Cc1cccnc1
 : -2.0% | -14% | u | -14 | u | 2 | 14%[15.4 µM]
C[C@@H]1CN(S(=O)C(C)(C)C)[C@H](CCO)/C1=C\CCO (stereo not given in full)
 : 0.5% | 5% | x | x | x | -1 | x
CCOc1ccc(NC(N)=O)cc1OCC
 : -0.7% | 10% | 0.9 | -4 | -2% | 3 | u
Cc1cc(SCC(=O)OCC(=O)NCc2ccc3c(c2)OCO3)c(C)cc1Br
 : -2.3% | -9% | -1.3 | -18 | 25% | 2 | -9%
CC(C)c1cccc(OCCN2CCCC2)c1
 : x | 16% | -4.8 | u | -5% | 13 | u
NC(=O)c1ccc(NC(=O)COC(=O)CC2CC3CCC2C3)cc1 (stereo not given)
 : x | 3% | x | x | x | 6 | 13%
COc1ccc(OC)c(CN2CCN(C(=O)c3cccc4ccccc34)CC2)c1
 : 0.7% | -10% | -0.5 | -5 | -30% | -16 | -5%
CN(C(=O)CSc1nc(-c2ccc(F)cc2)cs1)C1CCS(=O)(=O)C1 (stereo not given)
 : -2.0% | -5% | -0.8 | -10 | 15% | -7 | -18%
CC(=O)c1ccc(NC(=O)C(C)OC(=O)c2ccc(NS(=O)(=O)c3ccc4[nH]c(=O)[nH]c4c3)cc2)cc1 (stereo not given)
 : x | 3% | x | x | x | 7 | 28%[15.4 µM]
CCOC(=O)C1=C(c2ccccc2)N=c2s/c(=C\c3ccco3)c(=O)n2C1c1cccs1 (stereo not given)
 : 0.1% | 2% | u | 9 | 50µM* | -15 | -25%
CCOc1cc(C(=O)Nc2cc(OC)cc(OC)c2)ccc1OCC(=O)N1CCOCC1
 : -0.5% | -15% | x | 1 | x | -10 | 0%
CCOc1ccccc1NC(=O)CSc1nnc(CNC(=O)c2ccco2)o1
 : 0.1% | 6% | 2.1 | 5 | -6% | -3 | -3%
CC(=O)OCCCN1C(=O)c2ccc(Br)cc2C1=O
 : -2.8% | 4% | 1.3 | -12 | -1% | 8 | 13%
Cc1cc(F)ccc1S(=O)(=O)NCC1CC2CCC1C2 (stereo not given)
 : 0.8% | 9% | 2.9 | -15 | 15% | x | 20%
Cc1ccc(S(=O)(=O)NCCNC(C)c2ccc(Br)cc2)cc1 (stereo not given)
 : 3.0% | 15% | x | 2 | x | 10 | -6%
COc1ccccc1NC(=O)C(C)OC(=O)CCC1CCCCC1 (stereo not given)
 : 3.0% | 0% | x | -17 | 2% | 12 | -12%
CCOc1ccc(-c2c(C(=O)N/N=C/c3c[nH]c4ccccc34)nnn2-c2nonc2N)cc1
 : -18% | 25µM* | 7.3 | -2 | -1% | 30 | u
COc1cc(C(C)=O)ccc1OCC(O)CN1CCN(S(=O)(=O)c2ccccc2)CC1 (stereo not given)
 : -5.0% | -7% | -0.3 | -5 | 1% | u | -7%
CCOC(=O)C1=C(C)NC(SCC(=O)O)=NC1c1ccccc1 (stereo not given)
 : -1.3% | -3% | 16 | 7 | -17% | 2 | 9%
O=C(O)c1cc(NS(=O)(=O)c2cccc3nsnc23)cc(C(=O)O)c1
 : -0.1% | -3% | -0.5 | 5 | 6% | 3 | -1%
Cc1c(Nc2ncnc3nc[nH]c23)c(=O)n(-c2ccccc2)n1C
 : -2.5% | -4% | 0.0 | 6 | 13% | -8 | 2%
CC(C#N)OC(=O)c1cccnc1SCC(=O)Nc1ccc2c(c1)OCO2 (stereo not given)
 : x | -5% | x | x | x | 16 | -7%
CCOc1ccc(Nc2nc(Cc3nnc(SCC(N)=O)o3)cs2)cc1
 : -0.9% | -22% | 1.4 | u | -11% | -10 | -35%[inhibitor]
O=C1Nc2ccccc2/C1=N/c1sc2c(c1C(=O)NCCc1ccccc1)CCCC2
 : -0.6% | u | 1.7 | -17 | -27% | -12 | -2%
COc1ccc(/C(N)=N/OC(=O)c2cccs2)cc1
 : 2.1% | -2% | 1.0 | -3 | 2% | -10 | -14%
O=C(Nc1ccccc1C(=O)N1CCCCCC1)c1ccc(F)cc1
 : -0.7% | 6% | x | 19 | 12% | 2 | -41%[inhibitor]
O=C(CCCCC(=O)NN=Cc1ccc2c(c1)CCC2)NN=Cc1ccc2c(c1)CCC2
 : -0.5% | x | x | x | x | 11 | -14%
CCN1CCCC(CO)(Cc2ccccc2)C1 (stereo not given)
 : x | -1% | 1.2 | 2 | 15% | 17 | 3%[15.4 µM]
C/C(=N\NC(=O)c1ccc2c(c1)OCO2)c1ccc(C(=O)O)s1
 : x | -2% | 0.2 | 5 | 16% | 13 | -4%[15.4 µM]
CC1=C(C(=O)N2CCOCC2)CC(CC(=O)NCc2ccco2)C(=O)N1CCC1=CCCCC1 (stereo not given)
 : 0.9% | x | x | x | x | 1 | 9%
COc1ccc(-c2cc(C)no2)cc1S(=O)(=O)N1CCN(c2ccc([N+](=O)[O-])cc2)CC1
 : 0.4% | 3% | -0.5 | 0 | 2% | 21 | 0%
O=C1NC[C@H](c2ccccc2)OC(=O)[C@H](Cc2ccc(F)cc2)C/C=C\C[C@@H]1CC(=O)N(CCO)Cc1ccccc1
 : -0.9% | u | x | x | x | 5 | x
Cc1cccc(S(=O)Cc2ccc(C(=O)N3CCOCC3)o2)c1 (stereo not given)
 : -0.1% | 6% | x | 28 | 17% | -1 | 24%
CC1CCCC(NC(=O)C2CCN(C(=O)Nc3ccccc3)CC2)C1C (stereo not given)
 : -7.3% | 3% | x | -33 | x | -3 | -6%
CN(C(=O)COC(=O)c1ccc2c(c1)NC(=O)CS2)C1CCS(=O)(=O)C1 (stereo not given)
 : -4.4% | 7% | 3.3 | x | -9% | -9 | -5%
O=C(CCCc1nc2ccccc2s1)NC(c1ccccc1)c1ccccc1
 : 0.3% | 0% | 3.2 | -29 | 12% | -6 | -22%[15.4 µM]
O=c1[nH]c(/C(Cl)=C/c2c(F)cccc2Cl)nc2cc(Cl)ccc12
 : -0.1% | -12% | 3.9 | -5 | -1% | -1 | -1%[15.4 µM]
Cc1ccc2nc(/C(C#N)=C\c3ccc([N+](=O)[O-])o3)[nH]c2c1
 : 0.4% | 6% | u | 2 | 13% | u | u
